LANA-H2A inh – blockers of LANA interaction with H2A/H2B – biochemical, FP readout, HTS, primary screen; Protein LANA1 (Human herpesvirus 8 type P (isolate GK18)), Q9QR71; cell-free LANA-H2A/H2B peptide, fluorescence polarization; inhibition, % (no concentration beside the values); 320,000 compounds, 0.6% hits; AID 2629, 2010; in the data active = inhibition mostly above about 10%, no sharp cut-off; inactive = mostly below about 6.7%;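 note: stock transfer was 7.5 nL into about 10 µL; 0% = median of vehicle wells and 100% = median of positive control wells; one replicate is shown; the record names a cut of 25% in any replicate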
B2AR ag – beta2AR agonists driving receptor internalization, primary screen, cell-based, FAP fluorogen, flow cytometry | AID 504454, 2011 | 340,000 compounds, 0.43% hits | response, % (test concentration not listed) | Beta-2 adrenergic receptor (Homo sapiens), P07550 | Am2.2-beta2AR cells; reference of the scale not given here;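 active = response above a set limit, near 3 SD of response in nonfluorescent compounds, cut at about 42% in these data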;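 note: stock transfer was 100 nL into about 11 µL; a reference agonist was the positive control; negative values mostly stem from fluorescent compounds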
Target sequence (P07550 whole entry, looked up): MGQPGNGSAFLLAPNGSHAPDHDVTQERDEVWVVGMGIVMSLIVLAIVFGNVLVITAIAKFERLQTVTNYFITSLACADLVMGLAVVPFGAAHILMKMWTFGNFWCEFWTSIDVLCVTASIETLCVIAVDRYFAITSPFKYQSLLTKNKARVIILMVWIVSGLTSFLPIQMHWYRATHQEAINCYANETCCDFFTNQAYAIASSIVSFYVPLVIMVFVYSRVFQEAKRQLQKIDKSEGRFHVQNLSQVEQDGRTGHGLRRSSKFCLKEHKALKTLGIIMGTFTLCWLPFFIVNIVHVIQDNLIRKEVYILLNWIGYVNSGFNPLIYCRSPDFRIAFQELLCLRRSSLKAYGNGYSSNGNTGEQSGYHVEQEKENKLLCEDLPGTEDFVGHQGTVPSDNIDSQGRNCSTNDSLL
T cruzi repl – inhibitors of intracellular T. cruzi growth, primary screen, luminescence, NIH3T3 host cells | 300,000 compounds, 1.4% hits | T. cruzi beta-gal in NIH3T3, 90 h | inhibition, % (test concentration not listed);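 active = mean inhibition across valid replicates above about 55%, limit read from the data; inconclusive = mean below that limit but half or more replicates reach it; inactive = mean below it, under half of replicates reach it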;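 note: signal also drops with host cell toxicity which is not excluded here; 0% = plate median of DMSO wells and 100% = zero luminescence signal; higher percent means less beta-gal luminescence so fewer parasites; stock transfer was 50 nL into about 50 µL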
Ecoli rRNA inh – reduced GFP signal of wild-type E. coli, primary screen, bacterial rRNA inhibitor project, GFP/RFP fluorescence, OD600, single point; AID 720706, 2013; 350,000 compounds, 1.6% hits; GFP signal change (wild-type ribosome), % (test concentration not listed); E. coli WT GFP vs humanized-ribosome RFP mutants, 24 h; stronger effect = lower value; DMSO median 0, no signal -100;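 active = significant combined selectivity score with lowered wild-type GFP, culture density cut under 30%, mutant RFP and density less affected; inactive = any of these conditions unmet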; note: one replicate is shown; some compounds called inactive have numbers as strong as hits
ALR H2O2 inh – inhibitors of human ALR sulfhydryl oxidase, primary screen, biochemical, H2O2 detection, HRP-luminol luminescence, single point | FAD-linked sulfhydryl oxidase ALR (Homo sapiens), P55789 | 290,000 compounds, 3.8% hits | purified ALR, DTT oxidation | AID 485317, 2010 | inhibition, % (test concentration not listed);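 active = mean and each replicate at 75% or more; inconclusive = only one of the two met; inactive = neither met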;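 note: stock transfer was 7.5 nL into about 7.5 µL; 0% = neutral wells and 100% = wells with inactivated enzyme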
Target sequence (P55789 whole entry, looked up): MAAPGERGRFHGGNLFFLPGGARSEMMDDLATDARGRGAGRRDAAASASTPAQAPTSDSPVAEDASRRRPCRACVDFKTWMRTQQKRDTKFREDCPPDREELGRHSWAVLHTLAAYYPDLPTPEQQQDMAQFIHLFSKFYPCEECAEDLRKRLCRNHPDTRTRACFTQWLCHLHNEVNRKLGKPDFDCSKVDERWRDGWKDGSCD
Bfl-1 A1 inh – caspase 3/7 activation in MEF A1-2A-BIM cells, primary screen, A1 inhibitor project, cell-based, luminescence, HTS; Caspase-Glo 3/7 luminescence, 3 h; percent of clofoctol response, vehicle zero; caspase activation, % (test concentration not listed); 330,000 compounds, 0.066% hits;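 active = over half of replicate activation scores above 10%, or exactly half above 10 with the replicate mean above 10; inconclusive = replicate mean below 10 yet half the replicates above 10; inactive = over half of replicates below 10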;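 note: wells of about 30 µL received 50 nL stock; many hits fall short of the cut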
Calb FLC – C. albicans growth inhibition with fluconazole, primary screen, CaCi-2 strain, Alamar Blue fluorescence | growth inhibition, % (concentration not given with the values) | C. albicans CaCi-2 (fluconazole-resistant clinical isolate) + fluconazole, 48 h | 300,000 compounds, 0.57% hits | AID 1979, 2009;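 active = most replicates above 75%; inconclusive = exactly half above 75%; inactive = most below 75%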;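 note: all wells also contain fluconazole at 8 µg/ml as a sub-toxic cotreatment; 0% = median of DMSO wells and 100% = median of geldanamycin control wells; wells of about 8 µL received 7.5 nL stock; the first replicate is given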
Beta apoptosis – inhibitors of cytokine-induced beta cell apoptosis, primary screen, luminescence; 300,000 compounds, 0.8% hits; AID 435005, 2010; protection from apoptosis, % (concentration not given with the values); INS-1E cytokine-induced death, ATP luminescence, 48 h; percent of positive-control rescue, neutral wells zero;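 active = all replicates at 75% or more, or half of them and the mean; inconclusive = half reach 75% but not the mean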;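 note: 0% = cytokine-treated negative control wells and 100% = positive control rescue; higher means more ATP so stronger rescue from cytokine killing; wells of about 40 µL received 100 nL stock; the first replicate is given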
Ecoli rRNA inh OD600 – further read-out of Ecoli rRNA inh, marked with its call; OD600 change, %; measured here: OD600 growth;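 optical density of the mix in the first replicate; 0 = DMSO median and -100 = no signal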
Ecoli rRNA inh RFP – further read-out of Ecoli rRNA inh, marked with its call; RFP signal change, %; measured here: RFP humanized mutant strains;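 first replicate; 0 = DMSO median and -100 = no signal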
Numbers without * were called inactive; ? = inconclusive; · = no result given. This is a subset; count on the stated rates, not on these rows.

SMILES	LANA-H2A inh	B2AR ag	T cruzi repl	Ecoli rRNA inh	Ecoli rRNA inh OD600	Ecoli rRNA inh RFP	ALR H2O2 inh	Bfl-1 A1 inh	Calb FLC	Beta apoptosis
COc1cccc(C(=O)OCC(=O)NCCNC(=O)COC(=O)c2cccc(OC)c2OC)c1OC	-2.3	-1	-8	16	9	2.8	-1	-0.4	-3	-6
CC(C)CNC(=O)c1ccccc1NC(=O)Nc1ccccc1	-0.9	-5	-16	·	·	·	-5	-3.5	-7	0
C/C(=N\NC(=O)c1cccnc1)c1cc(C)oc1C	1.1	6	2	7	-1	3.6	52	0.5	0	2
CC1CCCC(NC(=O)/C=C/c2c(F)cccc2Cl)C1C (stereo not drawn)	-0.1	4	23	-1	-1	1.4	-9	-0.9	4	7
CCCCNC(=O)[C@]1(C)CCC[C@@]2(C)C3CC[C@@]4(C)C[C@]3(CCC21)CC4=O (stereo partly drawn)	-0.7	1	·	-33	-56	-4.7	-2	2.7	·	-4
CCOc1cc(/C=N/n2c(C)nc3ccccc3c2=O)ccc1O	-3.6	6	-4	3	9	-2.5	·	-0.2	7	-5
Cc1ccc(OCC(=O)Nc2ccc(S(=O)(=O)N3CCOCC3)cc2)c(Br)c1	-5.1	8	-3	4	14	-2.7	-1	-0.3	27	-3
COc1ccc(C2=NS(=O)(=O)N(C)C(C(=O)NCc3ccccc3)=C2)cc1OC	-3.9	5	1	1	-23	-2.8	-18	-0.8	-4	-5
CCc1ccc(S(=O)(=O)NCc2cccs2)cc1	1.2	-3	10	-9	-9	5.1	-1	0.3	1	-6
CCn1c(CCC(=O)Nc2nc3c(s2)CCCC3)nc2cc(S(=O)(=O)N(C)C)ccc21	0.8	1	-6	·	·	·	-18	0.5	27	-3
CCCCC1=CC2=CC(=O)C(C)(OC(=O)CC)C(=O)C2=CN1CCOC (stereo not drawn)	-0.7	4	-3	·	·	·	-25	0.2	16	-1
Cc1cccc(C(=O)OCC(=O)c2c(N)n(CC(C)C)c(=O)n(C)c2=O)c1O	1.6	16	17	-2	-1	-1.8	-1	-0.1	7	7
O=C(COc1ccc(Cl)cc1)Nc1c(-c2cccs2)nc2ccccn12	-0.4	3	4	12	22	-4.6	-1	0.4	0	-1
CC(=O)N1C(=O)C2(C(C#N)=C(N)Oc3n[nH]c(-c4ccccn4)c32)c2ccccc21 (stereo not drawn)	-0.5	6	0	·	·	·	-10	0.4	-2	-11
Cc1sc(-c2ccccn2)nc1OC(=O)c1ccc(Cl)cc1	-3.4	3	-2	·	·	·	-7	·	6	1
CCC1(c2ccccc2)NC(=O)N(CC(=O)Nc2cccnc2Cl)C1=O (stereo not drawn)	·	-4	·	-4	8	0.0	-3	0.2	·	-3
Cc1nnc(SCC(=O)Nc2cccc(S(=O)(=O)NC3=NCCCCC3)c2)n1Cc1ccccc1	-1.2	2	-1	4	0	-0.1	3	0.3	5	-4
O=C(CCl)Nc1cc(SCC(O)CO)cc([N+](=O)[O-])c1 (stereo not drawn)	·	13	46	3	10	-6.2	·	·	1	·
Cc1ccccc1C(=O)NCc1nnc(SCC(=O)N2c3ccccc3Sc3ccccc32)n1C	0.4	-1	11	·	·	·	26	0.3	0	4
O=S(=O)(c1ccc2nc(N3CCN(c4ccc(F)cc4)CC3)ccc2c1)N1CCCCC1	-0.3	2	-8	7	13	-1.1	-5	-1.0	-14	-6
COC(=O)NC1CSCC1OC(=O)CCN1C(=O)c2ccccc2C1=O (stereo not drawn)	1.4	-7	-8	·	·	·	0	1.7	7	-4
COC(=O)CSc1ncnc2c1sc1nc(N3CCOCC3)c3c(c12)CCCC3	0.0	-5	-5	·	·	·	3	-0.6	-1	·
O=c1cc(N2CCc3ccccc32)[nH]c(=O)n1-c1ccccc1Cl	-0.6	1	-7	-5	-10	-0.9	-5	-1.2	·	-8
O=C(Nc1cccc(Cl)c1)c1cc(S(=O)(=O)N2CCOCC2)cs1	0.5	7	-6	-5	-8	-3.2	-2	0.4	1	1
COc1cc(CN2CCN(c3cccc(C)c3C)CC2)cc(Br)c1O	-1.9	10	-10	·	·	·	14	1.8	20	3
O=S1(=O)C=C(N2CCOCC2)c2ccccc21	0.4	-3	2	·	·	·	22	0.2	-11	-1
CCN(C(=O)Cc1c(C(=O)O)n(C)c2ccccc12)c1cc(OC)ccc1OC	-1.4	2	0	3	-11	4.8	-3	0.4	-6	-7
O=C(Nc1cccc(Cl)c1)Nc1nnc(-c2ccccc2)o1	3.3	-2	-7	·	·	·	-13	0.1	4	-1
Nc1nc2c(s1)CC(c1ccccc1)CC2 (stereo not drawn)	-9.1	0	4	·	·	·	58	0.6	3	9
CCCCCC1CCC(c2nnc(SCC(C)=O)o2)CC1 (stereo not drawn)	4.1	-2	32	-2	-28	-3.5	2	-0.1	12	10
C=CCN(c1ccccc1C(=O)O)S(=O)(=O)c1ccc(C)cc1	3.4	3	-2	8	8	-2.2	·	0.7	-3	-5
CCOc1ccc(-n2ccnc2SCC(=O)NCc2ccc3c(c2)OCO3)cc1	0.0	0	5	·	·	·	-2	-0.2	-11	·
CCCN1C(=O)C(Cc2nc3ccccc3c(=O)n2C)c2ccccc21 (stereo not drawn)	5.5	-4	6	·	·	·	4	0.8	·	-10
CCN(CC(=O)Nc1ccccc1C(F)(F)F)C(=O)Cc1ccc2c(c1)CCC2	2.6	-2	·	-10	-30	-1.2	-12	0.6	·	-2
CC(=O)Nc1c2c(nn1-c1cccc(C)c1)CSC2	0.2	6	-17	5	10	-0.6	1	0.0	-5	-9
O=C(NCc1ccc(F)cc1)c1cc(-c2cccs2)on1	4.0	-4	8	·	·	·	-14	0.3	-15	-1
CCn1cc(CNC(=O)CSc2nc(-c3ccc(OC)c(OC)c3)cc(C(F)(F)F)n2)c(C)n1	1.7	-13	10	1	-7	-2.6	-5	-1.0	8	-4
CCCn1c2ccccc2c2cnn(CC(=O)NCCCN3CCN(c4ccccc4)CC3)c(=O)c21	-4.4	7	14	-3	-13	21	42	0.3	-2	-4
Cc1ncsc1C(=O)Nc1nc2c(s1)CC(C)CC2 (stereo not drawn)	-5.3	-5	-16	·	·	·	5	-5.9	-2	10
CN(CC(=O)Nc1cccc(F)c1)C(=O)c1cc(-c2ccccc2)nc2ccccc12	-6.5	20	12	-3	-13	1.8	·	1.3	1	·
NS(=O)(=O)c1ccc(Sc2ccccn2)c([N+](=O)[O-])c1	2.0	0	9	9	10	3.2	·	0.3	2	-6
C=CCn1c(SCC(=O)Nc2cc(C)ccc2OC)nnc1-c1ccco1	3.4	-7	4	·	·	·	·	-1.0	-2	2
CC(C)Oc1cccc(C(=O)N2CCCC2)c1	-4.1	0	-22	10	0	0.6	-1	-0.6	-19	-1
COc1ccc(/C=N\NC(=O)c2ccc(Cn3cc(Br)c([N+](=O)[O-])n3)o2)c(OC)c1C	-3.0	3	40	19	20	-2.2	-18	0.0	0	0
COc1ccc(S(=O)(=O)N2CCN(C)CC2c2ccccc2)cc1 (stereo not drawn)	-0.9	-8	·	-1	8	-0.5	-3	-0.5	·	-3
O=C(NN1CCN(Cc2ccccc2)CC1)c1ccc(Cl)cc1	-2.3	-4	29	7	0	3.6	15	0.5	3	-4
COCCNC(=O)c1cc2nc(-c3ccccc3)cc(C)n2n1	-1.2	-9	8	15	12	-1.3	4	0.2	3	3
Cc1ccc(S(=O)(=O)N2CCC(C(=O)NNC(=O)c3ccncc3)CC2)cc1	0.9	7	-1	7	6	0.1	1	1.5	-6	-1
O=C(Nc1ccc(OC(F)(F)F)cc1)Nc1cccc([N+](=O)[O-])c1	2.0	11	47	·	·	·	12	-0.7	-14	102*
CN(CC(=O)Nc1ccc(N2CCOCC2)cc1)C(=O)CCCOc1ccc(Cl)cc1Cl	-0.5	-2	10	-32	-36	-1.8	?	-1.9	-18	5
CCOc1ccc2c(CC)cc(=O)oc2c1OCC	-6.2	-4	-5	0	-1	-22	1	0.0	36	-7
CCOC(=O)Cc1nnc(Nc2cccc(C)c2)c2ccccc12	-0.6	15	8	·	·	·	·	0.3	-13	3

Arranged by SMILES length (smallest number first): some entries from above.
SMILES	LANA-H2A inh	B2AR ag	T cruzi repl	Ecoli rRNA inh	Ecoli rRNA inh OD600	Ecoli rRNA inh RFP	ALR H2O2 inh	Bfl-1 A1 inh	Calb FLC	Beta apoptosis
CCOc1ccc2c(CC)cc(=O)oc2c1OCC	-6.2	-4	-5	0	-1	-22	1	0.0	36	-7
COCCNC(=O)c1cc2nc(-c3ccccc3)cc(C)n2n1	-1.2	-9	8	15	12	-1.3	4	0.2	3	3
COc1ccc(S(=O)(=O)N2CCN(C)CC2c2ccccc2)cc1 (stereo not drawn)	-0.9	-8	·	-1	8	-0.5	-3	-0.5	·	-3
C=CCn1c(SCC(=O)Nc2cc(C)ccc2OC)nnc1-c1ccco1	3.4	-7	4	·	·	·	·	-1.0	-2	2
NS(=O)(=O)c1ccc(Sc2ccccn2)c([N+](=O)[O-])c1	2.0	0	9	9	10	3.2	·	0.3	2	-6
O=C(Nc1ccc(OC(F)(F)F)cc1)Nc1cccc([N+](=O)[O-])c1	2.0	11	47	·	·	·	12	-0.7	-14	102*
Cc1ccc(S(=O)(=O)N2CCC(C(=O)NNC(=O)c3ccncc3)CC2)cc1	0.9	7	-1	7	6	0.1	1	1.5	-6	-1
CN(CC(=O)Nc1ccc(N2CCOCC2)cc1)C(=O)CCCOc1ccc(Cl)cc1Cl	-0.5	-2	10	-32	-36	-1.8	?	-1.9	-18	5
COc1ccc(/C=N\NC(=O)c2ccc(Cn3cc(Br)c([N+](=O)[O-])n3)o2)c(OC)c1C	-3.0	3	40	19	20	-2.2	-18	0.0	0	0

Compound activity deposited in PubChem by several laboratories.
